Lassa entry inh = blocks Lassa virus binding to or entry into cells; 1.2% of 300,000 active; Lassa virus pseudotype entry inhibition, cell reporter; control for the full effect not named in the record; Potency, µM (doses to about 37.9 µM), for inactives: at the highest dose activity change, negative = inhibition, actives largely listed as inhibitors; active means well fitted inhibition curve with a large enough effect; inconclusive means small, poorly fitted or top-dose-only effect, or effect the other way; inactive means flat fitted curve, though single readings scatter; tested in HEK293 cells; note: % is set by controls: 0 for no effect and ±100 for the full control effect; nearly all actives have a fitted effect of over 50% in size; luciferase read-out
MARV entry inh = Marburg virus entry inhibition | Marburg virus pseudotyped entry inhibition, cell reporter; control for the full effect not named in the record; about a third of the inactives were read at about 46 µM | Potency, µM (top dose mostly 37.8 µM), without a hit: at the highest dose activity change, negative = inhibition, actives largely listed as inhibitors | 1.8% of 300,000 active | AID 540276; active = well fitted inhibition curve with a large enough effect; inconclusive = small, poorly fitted or top-dose-only effect, or effect the other way; inactive = flat fitted curve, though single readings scatter; tested in HEK293 cells; about a fifth of its hits are not listed in these tables; note: % is set by controls: 0 for no effect and ±100 for the full control effect; luciferase read-out
StopGo reporter = lowers the luciferase signal of an FMDV 2A StopGo reporter | human cells with a luciferase reporter of 2A StopGo recoding; control for the full effect not named in the record | 1.2% of 410,000 active | Potency, µM (series often up to 57.9 µM), without a hit: at the top dose signal change, negative = less light | AID 1159524; active = well fitted falling curve with a large enough effect; inconclusive = small, poorly fitted or top-dose-only effect; inactive = no such curve, though single readings can be large or run the other way; tested in HEK293T cells; note: % is set by controls: 0 for no effect and ±100 for the full control effect; nearly all actives have a fitted effect of over 45% in size; luciferase light after 4 h
RE007 growth inh = less growth of the S. pombe RE007 Vpr strain | Potency, µM (highest dose often 92.2 µM), for the others: top-dose activity change, negative = less growth | S. pombe RE007 Vpr strain, BacTiter-Glo ATP luminescence, 24 h; control for the full effect not named in the record | AID 651644 | 0.21% of 360,000 active; active = well fitted falling curve with a large enough effect; inconclusive = small, poorly fitted or top-dose-only effect; inactive = no such curve, though single readings can be large or run the other way;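 note: % is set by controls: 0 for no effect and ±100 for the full control effect; nearly all actives have a fitted effect of over 50% in size; the assay follows cell death caused by Vpr and the record does not say whether a fall means rescue or toxicity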
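Fission yeast strain RE007, carrying one chromosomally integrated HIV-1 vpr copy, was seeded at OD 0.01 in PMG+AL medium with 23 nL pinned compound. After 24 h at 30 °C and 99% humidity, viability was read by BacTiter-Glo luminescence.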
SARS PLP yeast = inhibitors of SARS-CoV papain-like protease in yeast; S. cerevisiae expressing SARS-CoV PLpro, growth rescue; control for the full effect not named in the record; Potency, µM (doses to about 32.9 µM), for the others: at the top dose activity, positive = growth rescue; 0.19% of 330,000 active; note: 0% is about no effect; nearly all actives have a fitted effect of over 55% in size; growth read by luminescence after 48 h
Cruzain inh Det = inhibitors of Trypanosoma cruzi cruzain with detergent. 0.43% of 200,000 active. P25779. purified cruzain, Z-FR-AMC fluorescence, 0.01% Triton. Potency, µM, for the others: max response, negative = inhibition, most hits filed as inhibitors. AID 1478; active = well fitted curve in the direction sought with a large enough effect; inconclusive = small, poorly fitted or top-dose-only effect, or another doubt; inactive = no such curve, though single readings can be large; an effect the other way counts as inactive or inconclusive;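 note: plate controls were neutral wells for no effect and buffer without enzyme for full effect; nearly all actives have a fitted effect of over 40% in size; top concentration of the series not given in the record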
Target sequence (P25779 123-467 limits assumed): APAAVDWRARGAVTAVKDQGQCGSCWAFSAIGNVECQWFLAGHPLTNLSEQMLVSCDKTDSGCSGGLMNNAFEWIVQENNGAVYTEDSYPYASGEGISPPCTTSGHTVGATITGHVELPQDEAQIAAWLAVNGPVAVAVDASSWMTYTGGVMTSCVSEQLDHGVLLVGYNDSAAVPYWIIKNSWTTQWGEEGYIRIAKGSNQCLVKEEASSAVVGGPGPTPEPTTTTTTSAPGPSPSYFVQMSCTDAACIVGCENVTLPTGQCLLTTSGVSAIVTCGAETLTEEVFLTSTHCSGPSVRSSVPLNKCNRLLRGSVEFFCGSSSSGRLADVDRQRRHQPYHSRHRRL
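15 min RT preincubation of 1.5 nM cruzain with compound, then 2 uM Z-FR-AMC added; kinetic AMC fluorescence, 60 s delta. Triton X-100 0.01%, pH 5.5.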
Cruzain noTriton = inhibitors of Trypanosoma cruzi cruzain without detergent. P25779. purified cruzain, Z-FR-AMC fluorescence, no detergent. Potency, µM, without a hit: max response, negative = inhibition, actives largely listed as inhibitors. 2.3% of 200,000 active. AID 1476; active = well fitted curve in the direction sought with a large enough effect; inconclusive = small, poorly fitted or top-dose-only effect, or another doubt; inactive = no such curve, though single readings can be large; an effect the other way counts as inactive or inconclusive;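 note: plate controls were enzyme without inhibitor for no effect and buffer without enzyme for full effect; nearly all actives have a fitted effect of over 40% in size; top concentration of the series not given in the record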
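Detergent-free condition (0.00005% Triton X-100) in acetate buffer pH 5.5 with DTT. 1.5 nM enzyme and compound were pre-mixed 15 min, then 2 uM Z-FR-AMC substrate added; reaction progress from fluorescence change between first and third reads (60 s).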
NS1 function inh = influenza NS1 inhibition; S. cerevisiae slowed by influenza A NS1, growth recovery by OD600; Potency, µM (series often up to 46.1 µM), inactives show at the top dose activity, positive = more growth; 0.4% of 270,000 active; note: actives are rising curves; nearly all actives have a fitted effect of over 50% in size
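S. cerevisiae expressing influenza A NS1, grown in glucose, washed, then diluted 1:100 into pH 6.0 -URA galactose medium with 23 nl compound. Growth recovery read as OD600; NS1-free strain serves as control.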
* = called active by the depositor; & = joins results of further samples; [ ] = another dose, or the depositor's remark. Unless noted, calls come from the whole dose curve; as a rule, active means well fitted rising curve with a large enough effect; inconclusive means small, poorly fitted or top-dose-only effect; inactive means no such curve, though single readings can be large or run the other way. Potency is the fitted concentration of half-maximal effect.

The first 2 entries, to show the layout:
What do the screens show for `COc1ccc(Nc2oc(-c3ccccc3F)nc2C#N)cc1`?
Lassa entry inh: -6%; MARV entry inh: 1%; StopGo reporter: 65%[activator]; RE007 growth inh: -7%; SARS PLP yeast: 1%; NS1 function inh: 2%

Results for COCc1nnc(NC(=O)CS(=O)(=O)Cc2ccccc2)s1 ?
Lassa entry inh: 4%; MARV entry inh: 4%; StopGo reporter: -7%; RE007 growth inh: 2%; SARS PLP yeast: 5%; Cruzain inh Det: -0.2%; Cruzain noTriton: 1%; NS1 function inh: 3%

The whole of this part (from the top)
What do the screens show for `COc1ccc(Nc2oc(-c3ccccc3F)nc2C#N)cc1`?
Lassa entry inh: -6%; MARV entry inh: 1%; StopGo reporter: 65%[activator]; RE007 growth inh: -7%; SARS PLP yeast: 1%; NS1 function inh: 2%

Results for COCc1nnc(NC(=O)CS(=O)(=O)Cc2ccccc2)s1 ?
Lassa entry inh: 4%; MARV entry inh: 4%; StopGo reporter: -7%; RE007 growth inh: 2%; SARS PLP yeast: 5%; Cruzain inh Det: -0.2%; Cruzain noTriton: 1%; NS1 function inh: 3%

Results for Cc1ccc(C(C(=O)NC2CCCC2)N(C(=O)CNC(=O)c2ccco2)c2ccccc2)o1 (stereo not drawn) ?
MARV entry inh: 1%[46.1 µM]; StopGo reporter: 25%; RE007 growth inh: 8%; SARS PLP yeast: 1%; NS1 function inh: -8%

Results for O/N=C/c1ccccc1Oc1ccccc1 ?
Lassa entry inh: 9%; MARV entry inh: -11%[46.1 µM]; StopGo reporter: -9%; RE007 growth inh: -3%; SARS PLP yeast: -17%; Cruzain inh Det: -6.4%; Cruzain noTriton: -1%; NS1 function inh: -3%

What do the screens show for `CCCCN(C)C(=O)Cn1cnc2sc(C)c(S(=O)(=O)N3CCN(c4ccccc4OC)CC3)c2c1=O`?
Lassa entry inh: 11%&18%[46.1 µM]; MARV entry inh: -9%&13%[46.1 µM]; StopGo reporter: -10%&-22%; RE007 growth inh: -9%; SARS PLP yeast: -7%; Cruzain inh Det: -0.1%; Cruzain noTriton: 2%; NS1 function inh: -2%

How did Cc1[nH]c2ccccc2c1C(=O)/C=C\c1ccccc1Cl do in these assays?
Lassa entry inh: -13%; MARV entry inh: inconclusive; StopGo reporter: -46%; RE007 growth inh: -6%; SARS PLP yeast: 4%; Cruzain inh Det: -14%; Cruzain noTriton: 15%; NS1 function inh: 3%

How did CC(C)Oc1ccc(C2C(C(=O)c3ccco3)=C(O)C(=O)N2Cc2cccnc2)cc1 (stereo not drawn) do in these assays?
Lassa entry inh: 16%; MARV entry inh: 25%; StopGo reporter: 14%; RE007 growth inh: 8%; SARS PLP yeast: 1%; Cruzain inh Det: -0.1%; Cruzain noTriton: -9%; NS1 function inh: 11%

What do the screens show for `Cc1ccc(S(=O)(=O)N2CCN(C(=O)c3ccc(Br)o3)CC2)c(C)c1`?
Lassa entry inh: inconclusive; MARV entry inh: -3%[46.1 µM]; StopGo reporter: -19%; RE007 growth inh: 2%; SARS PLP yeast: 0%; NS1 function inh: -12%

What do the screens show for `CCN(C(=O)CSc1nc2ncccc2[nH]1)c1ccc(C(C)C)cc1`?
MARV entry inh: inconclusive; StopGo reporter: -14%; Cruzain inh Det: -2.6%; Cruzain noTriton: 12%

How did COc1ccc(NC(=O)Nc2ccccn2)cc1OC do in these assays?
StopGo reporter: 63%[activator]; RE007 growth inh: -15%; SARS PLP yeast: -1%; NS1 function inh: -34%

What do the screens show for `COc1ccc(OCC(O)CNS(=O)(=O)c2ccc(NC(C)=O)cc2)cc1` (stereo not drawn)?
Lassa entry inh: inconclusive; MARV entry inh: 8%; StopGo reporter: -15%; RE007 growth inh: 3%; SARS PLP yeast: 12%; NS1 function inh: 4%

What do the screens show for `Cc1ccc(OCC(=O)N2CC3(C)CC2CC(C)(C)C3)cc1` (stereo not drawn)?
Lassa entry inh: -9%; MARV entry inh: -14%[46.1 µM]; StopGo reporter: -16%; RE007 growth inh: -7%; SARS PLP yeast: -7%; Cruzain inh Det: -1.0%; Cruzain noTriton: 13%; NS1 function inh: -7%

What do the screens show for `CSc1ccccc1NC(=O)c1ccccc1N(C)S(C)(=O)=O`?
Lassa entry inh: -8%; MARV entry inh: -1%; StopGo reporter: -15%; RE007 growth inh: 15%; SARS PLP yeast: 6%; Cruzain inh Det: 7.3%; Cruzain noTriton: -6%; NS1 function inh: -5%

How did CNC(=O)c1ccc(-c2ccccc2)s1 do in these assays?
Lassa entry inh: inconclusive; MARV entry inh: inconclusive; StopGo reporter: 34%[activator]; RE007 growth inh: -16%; SARS PLP yeast: -12%; Cruzain inh Det: 4.3%; Cruzain noTriton: 6%; NS1 function inh: -69%

Results for Cn1c(SCC(=O)N2CCc3ccccc32)nc2cccnc21 ?
Lassa entry inh: 13%; MARV entry inh: -22%; StopGo reporter: inconclusive; RE007 growth inh: 1%; SARS PLP yeast: -3%; Cruzain inh Det: 2.5%; Cruzain noTriton: 13%; NS1 function inh: -58%

Results for CCCOc1cc(C)c(Cl)cc1S(=O)(=O)N(CC)CC ?
Lassa entry inh: -12%; MARV entry inh: -15%; StopGo reporter: -14%; RE007 growth inh: -22%; SARS PLP yeast: -24%; Cruzain inh Det: -5.6%; Cruzain noTriton: 10%; NS1 function inh: -20%

What do the screens show for `COc1ccc(CNC(=O)CSc2nnc3c(n2)[nH]c2ccc(C)cc23)cc1`?
MARV entry inh: 25%[46.1 µM]; StopGo reporter: -1%; RE007 growth inh: 1%; SARS PLP yeast: 1%; NS1 function inh: -2%

Results for Cc1cc(=O)oc2cc(OCC(=O)OCC(=O)NCCc3ccccc3)ccc12 ?
Lassa entry inh: 17%[46.1 µM]; MARV entry inh: inconclusive; StopGo reporter: 28%; RE007 growth inh: 9%; SARS PLP yeast: -2%; NS1 function inh: -12%

What do the screens show for `N#Cc1ccc(-c2ccc(OCC(=O)NCC(=O)Nc3ccc(F)c(F)c3F)cc2)cc1`?
Lassa entry inh: 2%; MARV entry inh: inconclusive; StopGo reporter: 0%; RE007 growth inh: -9%; SARS PLP yeast: 9%; Cruzain inh Det: 8.6%; Cruzain noTriton: -23%; NS1 function inh: 6%

Results for Cc1ccc(C(=O)C2CCN(CC(=O)Nc3ccccc3C)CC2)cc1 ?
MARV entry inh: inconclusive; StopGo reporter: -25%; RE007 growth inh: -7%; SARS PLP yeast: -2%; NS1 function inh: 3%

What do the screens show for `C=CCN=C(NC#N)SCc1ccccc1`?
Lassa entry inh: -14%; MARV entry inh: 16%[46.1 µM]; StopGo reporter: -2%; RE007 growth inh: -3%; SARS PLP yeast: -3%; Cruzain inh Det: -0.2%; Cruzain noTriton: -5%; NS1 function inh: 9%

What do the screens show for `COc1ccc(CNC(=O)[C@H](Cc2ccccc2)NC(=O)C2CCN(C(=O)[C@H](C)N)CC2)cc1`?
StopGo reporter: -17%; RE007 growth inh: -2%; SARS PLP yeast: -6%; NS1 function inh: -7%

What do the screens show for `COc1cc(OC)c(C(=O)N2CCCC2)cc1OC`?
Lassa entry inh: -10%[46.1 µM]; MARV entry inh: 7%[46.1 µM]; StopGo reporter: 14%; RE007 growth inh: 7%; SARS PLP yeast: 1%; NS1 function inh: -4%

How did Cc1nc(SCC(=O)O)c(C#N)c(C)c1CC(=O)c1ccccc1 do in these assays?
Lassa entry inh: inconclusive; MARV entry inh: -5%[46.1 µM]; StopGo reporter: -8%; RE007 growth inh: 7%; SARS PLP yeast: -1%

What do the screens show for `CCN1C(=O)CC(c2ccco2)Sc2ccccc21` (stereo not drawn)?
Lassa entry inh: -20%; MARV entry inh: -6%; StopGo reporter: 0%; RE007 growth inh: 25%; SARS PLP yeast: 1%; Cruzain inh Det: 4.5%; Cruzain noTriton: -10%; NS1 function inh: 18%

How did CCn1c(SCC(=O)N2CCN(c3ccccc3)CC2)nnc1-c1c[nH]c2ccccc12 do in these assays?
StopGo reporter: inconclusive; RE007 growth inh: 2%; SARS PLP yeast: 2%; Cruzain inh Det: -4.6%; Cruzain noTriton: 1%; NS1 function inh: 5%

Results for O=C(OC1CCOC1=O)C1CCN(S(=O)(=O)c2c(Cl)cccc2Cl)CC1 (stereo not drawn) ?
Lassa entry inh: 1%; MARV entry inh: inconclusive; StopGo reporter: -21%; RE007 growth inh: 35%; SARS PLP yeast: -2%

Results for O=C(CC1NCCNC1=O)Nc1ccc2c(c1)OCCO2 (stereo not drawn) ?
Lassa entry inh: -20%[14.3 µM]; MARV entry inh: 11%; StopGo reporter: 15%; RE007 growth inh: -4%; SARS PLP yeast: 7%; Cruzain inh Det: 7.7%; Cruzain noTriton: 10%; NS1 function inh: 6%

Results for Cc1nc2ccc(C(=O)c3ccccc3)cc2[nH]1 ?
Lassa entry inh: 6%; MARV entry inh: 17%; StopGo reporter: 44%[activator]; RE007 growth inh: -10%; SARS PLP yeast: -8%; Cruzain inh Det: -5.2%; Cruzain noTriton: -16%; NS1 function inh: -60%

Results for CCn1c(SCC(=O)Nc2ccccc2N2CCOCC2)nnc1-c1ccccc1 ?
Lassa entry inh: -12%; MARV entry inh: 1%; StopGo reporter: -2%; RE007 growth inh: -5%; SARS PLP yeast: -4%; Cruzain inh Det: 0.8%; Cruzain noTriton: -5%; NS1 function inh: -13%

How did C=CCN1C(=O)C(CC(=O)O)SC1=Nc1c(C)n(C)n(-c2ccccc2)c1=O (stereo not drawn) do in these assays?
Lassa entry inh: 5%; MARV entry inh: 30%; StopGo reporter: 10%; RE007 growth inh: -5%[3.69 µM]; SARS PLP yeast: 6%; Cruzain inh Det: -0.1%; Cruzain noTriton: 6%; NS1 function inh: 2%

How did CCOC(=O)C1CCCN(C(=O)Cn2cnc3sc(C)c(S(=O)(=O)N4CCOCC4)c3c2=O)C1 (stereo not drawn) do in these assays?
Lassa entry inh: 16%; MARV entry inh: 4%[46.1 µM]; StopGo reporter: -7%; RE007 growth inh: 1%; SARS PLP yeast: 4%; NS1 function inh: 17%

Results for C/C(=N\NC(=S)NC1CCCCC1)c1ccc(Cl)c(Cl)c1 ?
StopGo reporter: -8%; RE007 growth inh: -10%; SARS PLP yeast: -1%; NS1 function inh: 6%

From PubChem

The order is random. About 4.5% of those tested had a hit in this group.
